VDR inh – Inhibitors of the vitamin D receptor (VDR): qHTS; hit rate 0.93% among 400,000; VDR-SRC2-3 peptide fluorescence polarization, 2 h; Vitamin D3 receptor (Homo sapiens), P11473; Potency, µM, for the others: max response, negative = inhibition, usual class: inhibitors; active means well fitted inhibition curve with a large enough effect; inconclusive means small, poorly fitted or top-dose-only effect, or another doubt; inactive means no such curve, though single readings can be large or run the other way; further: series mostly up to about 120 µM
Target sequence (P11473 whole entry, looked up): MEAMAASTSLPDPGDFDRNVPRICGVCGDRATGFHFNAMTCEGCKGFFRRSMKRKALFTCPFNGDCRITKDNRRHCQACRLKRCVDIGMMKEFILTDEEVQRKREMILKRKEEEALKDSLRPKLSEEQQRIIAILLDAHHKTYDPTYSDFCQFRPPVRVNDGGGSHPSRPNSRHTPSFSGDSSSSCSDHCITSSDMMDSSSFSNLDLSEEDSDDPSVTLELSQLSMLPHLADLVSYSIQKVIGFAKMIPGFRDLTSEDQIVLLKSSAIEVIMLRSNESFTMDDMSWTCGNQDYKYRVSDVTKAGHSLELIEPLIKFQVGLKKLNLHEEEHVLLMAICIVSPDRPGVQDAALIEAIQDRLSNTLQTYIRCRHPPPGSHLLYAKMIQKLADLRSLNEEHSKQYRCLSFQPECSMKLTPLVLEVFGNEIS
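Fluorescence polarization assay of small-molecule disruption of VDR binding to coregulator peptide SRC2-3. Compounds and controls pin-transferred, then read after 2 h incubation at ambient room temperature.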
* marks the source's active call; other numbers are inactive results; & = joins results of further samples. On the % scale 0 is the no-effect control and ±100 the full control effect; potency means the concentration at half of the fitted maximal effect. These rows are one share of the data. The share of hits here may be higher or lower than overall.

`CCCCN1C(=O)c2[nH]nc(-c3ccccc3O)c2C1c1cc(Br)c(O)c(OC)c1` (configuration not stated) gave VDR inh inconclusive.
For O=C(C1=C[C@@H](c2ccc(Br)cc2)C[C@@H](OCCCCO)O1)N1CCN(Cc2ccc3c(c2)OCO3)CC1 the results were VDR inh -7%.
`COc1cccc(/C=C2\SC(=O)N(CCC(=O)NC3CCS(=O)(=O)C3)C2=O)c1` (configuration not stated) gave VDR inh 6%.
`COc1ccc(NC(=O)CN(c2ccccc2C)S(C)(=O)=O)c(OC)c1` gave VDR inh 2%.
For CC(=O)NCCSc1ccc(S(=O)(=O)N2CCCC2)cn1 the results were VDR inh -6%.
For CC(CC(=O)NCc1ccc(Cl)cc1)CC1=NS(=O)(=O)c2ccccc2N1 (configuration not stated) the results were VDR inh 7%.
`COc1ccc2c(c1)c(CC(=O)Nc1cc(C)cc(C)c1)c(C)n2C(=O)c1ccc(Cl)cc1` gave VDR inh 0%.
For CCCOc1ccc(C2C(=O)N(C3CCCCCC3)CC(=O)N2CCCOCC)cc1OC (configuration not stated) the results were VDR inh 8%.
Screening O=[N+]([O-])c1cccc(-c2cn3nc(-c4ccccc4)c(-c4ccccc4)nc3n2)c1 returned VDR inh -6%.
OC(c1ccccc1)(c1ccccc1)c1nccc2ccccc12 was read as VDR inh -13%.
`O=C(Cc1ccc(F)cc1)N/N=C/c1ccc(-c2ccc(Cl)c(C(=O)O)c2)o1` gave VDR inh -10%.
For Cn1c(C(=O)O)c(S(=O)(=O)c2ccc(Cl)cc2)c2ccccc21 the results were VDR inh 0%.
COc1cc(C(=O)NC(CCSC)C(=O)OCC(=O)NC(=O)C2CCCCC2)cc(OC)c1OC (configuration not stated) was read as VDR inh 12%.
Screening O=C(Nc1nnc(S(=O)(=O)N2CCCc3ccccc32)s1)c1ccc(Cl)cc1 returned VDR inh 0%.
`NC(=O)NCCC1=CCCCC1` gave VDR inh 0%.
For c1ccc2[nH]c(SCc3cn4ccccc4n3)nc2c1 the results were VDR inh 2%.
Screening O=C(c1ccc(Cn2c(=O)[nH]c3ccccc3c2=O)cc1)N1CCN(c2ccccn2)CC1 returned VDR inh 1%.
`O=C1C2CCCN2C(c2ccccc2)N1c1ccc(F)cc1` (configuration not stated) gave VDR inh -5%.
Cc1[nH]c2ccccc2c(=O)c1CN1CCCCC1 was read as VDR inh -13%.
CCCc1nc(NCC2CCCO2)c2nnn(Cc3ccccc3)c2n1 (configuration not stated) was read as VDR inh -11%.
Cc1cccc(NC(=S)NC(C)C(c2ccccc2)N2CCN(C)CC2)c1C (configuration not stated) was read as VDR inh -8%.
COc1ccc(NC(=O)Cc2c[nH]c3ccccc23)cc1S(=O)(=O)N1CCOCC1 was read as VDR inh 2%.
For CS(=O)(=O)N(CC(=O)N1CCN(Cc2ccccc2)CC1)c1ccc2c(c1)OCCO2 the results were VDR inh 2%.
C=CCN(c1ccccc1)S(=O)(=O)c1cccc(C(=O)NCC(c2ccccc2OC)N2CCCC2)c1 (configuration not stated) was read as VDR inh -16%.
For Cc1ccc(S(=O)(=O)Nc2ccccc2C=Nc2cccc(C)c2C)cc1 the results were VDR inh -18%.
Screening COc1ccccc1N1CN(S(=O)(=O)c2ccc(C)cc2)c2nc3ccccc3nc21 returned VDR inh -17%.
Screening O=C(COc1ccccc1-c1ccccc1)N/N=C/c1cccnc1 returned VDR inh 14%.
COc1cccc(N2C(=O)N(c3ccccc3Cl)C3CS(=O)(=O)CC32)c1 (configuration not stated) was read as VDR inh -1%.
`CN(C(=O)c1cccc(NC(=O)Cc2ccc(NC(=O)C3CCN(C(=O)C4CCCC4)CC3)cc2)c1)C1CC1` gave VDR inh -1%.
For CCCCOC(=O)c1ccc(NC(=O)CN2C(=O)NC3(CCCCCC3)C2=O)cc1 the results were VDR inh 8%.
CCOc1ccc(CCNC(=O)c2cnc(C)cn2)cc1OCC was read as VDR inh -6%.
For O=C(C1CCCCC1)N1CCCc2ccccc21 the results were VDR inh 16%.
Screening COc1ccccc1CNC(=O)[C@H](C)NC(=O)C1CCN(C(=O)[C@@H](N)C(C)C)CC1 returned VDR inh -11%.
Screening O=C(Nc1ccc(N2CCCCC2)cc1)c1ccc([N+](=O)[O-])o1 returned VDR inh 6%.
O=C(CCC(=O)N1CCSc2ccccc21)Nc1ccc(F)cc1 was read as VDR inh -6%.
`COc1ccc(C2=NN(C(=O)CCC(=O)O)C(c3cccs3)C2)cc1OC` (configuration not stated) gave VDR inh -9%.
Screening Cc1ccc(Oc2nc(CN3CCOCC3)nc3sc4c(c23)CCC(C)C4)cc1C (configuration not stated) returned VDR inh 6%.
`Cc1ccc2nc(NC(=O)C3CCCN3C(=O)OC(C)(C)C)sc2c1` (configuration not stated) gave VDR inh -7%.
`Cc1ccccc1NC(=O)c1sc2nc3n(c(=O)c2c1C)N=C(c1ccccc1)CS3` gave VDR inh -7%.
O=C(CCNC(=O)c1ccc(Cl)cc1)NC1CCCCCC1 was read as VDR inh -8%.
For Cc1ccc(S(=O)(=O)N2CCN(S(=O)(=O)c3ccc4c(c3)OCCO4)CC2)cc1 the results were VDR inh -6%&-13%.
O=C(COC(=O)c1cccs1)NCC1CCCCC1 was read as VDR inh -15%.
`COCCN(C(=S)Nc1c(C)cc(C)cc1C)C(C)c1cccnc1` (configuration not stated) gave VDR inh 45µM*.
CCOC(=O)c1ccc(NC(=O)c2c(C)oc3nc(C)nc(N4CCCC4)c23)cc1 was read as VDR inh 12%.
For COc1ccc(NC(=O)N(C2CCCCC2)C(C)c2cccnc2)c(OC)c1 (configuration not stated) the results were VDR inh 10%.
Screening O=C(Nc1cnn(Cc2ccc(F)cc2)c1)c1cnccn1 returned VDR inh -12%.
For C=C(CCC(=O)c1ccccc1)C(=O)c1ccccc1 the results were VDR inh 45µM*.
For COc1ccc(CNC(=O)c2ccc3c(c2)nc2n3CCOC2)c(OC)c1 the results were VDR inh -3%.
Screening NC(=O)CCNC(=O)c1ccc(Cl)cc1 returned VDR inh -6%.
For Cc1c(NC(=O)C2CCCCC2)cc(C(=O)N2CCOCC2)cc1[N+](=O)[O-] the results were VDR inh 20%.
For Cn1c(=O)c2c(ncn2CC(=O)Nc2ccccc2Sc2ccccc2)n(C)c1=O the results were VDR inh -14%.
Screening Cc1ccc(-c2[nH]ncc2/C=N/n2c(COc3ccccc3C)nc3ccccc3c2=O)cc1 returned VDR inh -16%.
Screening O=C(CSc1ccc2ccccc2c1)Nc1ccc(S(=O)(=O)Nc2nccs2)cc1 returned VDR inh -5%.
For Cc1cccc2[nH]c3c(=O)n(CCN4CCNCC4)cnc3c12 the results were VDR inh 11%.
CCN1CCCC(NC(=O)c2cc([N+](=O)[O-])ccc2OC)C1 (configuration not stated) was read as VDR inh -15%.
Screening COCCNC(=O)COc1ccc(Oc2ccccc2)cc1 returned VDR inh -4%.
Screening COc1cccc2c1OCC/C2=N\NC(=O)COc1ccc(C)cc1 returned VDR inh -8%.
`CCOc1ccc(CCNS(=O)(=O)c2ccc3c(c2)oc(=O)n3C)cc1OCC` gave VDR inh -11%.
Screening O=C(C[n+]1cc(Br)cc2ccccc21)c1ccc(Br)cc1 returned VDR inh -15%.
For CC[C@H](C)[C@H](NC(=O)[C@H](CCC(=O)O)NC(=O)[C@H](CO)NC(=O)[C@@H](NC(=O)[C@@H](N)CO)C(C)C)C(=O)N[C@@H](CCC(N)=O)C(=O)N[C@@H](CC(C)C)C(=O)N[C@@H](CCSC)C(=O)N[C@@H](Cc1cnc[nH]1)C(=O)N[C@@H](CC(N)=O)C(=O)N[C@@H](CC(C)C)C(=O)NCC(=O)N[C@@H](CCCCN)C(=O)N[C@@H](Cc1cnc[nH]1)C(=O)N[C@@H](CC(C)C)C(=O)N[C@@H](CC(N)=O)C(=O)N[C@@H](CO)C(=O)N[C@@H](CCSC)C(=O)N[C@@H](CCC(=O)O)C(=O)N[C@@H](CCCNC(=N)N)C(=O)N[C@H](C(=O)N[C@@H](CCC(=O)O)C(=O)N[C@@H](Cc1c[nH]c2ccccc12)C(=O)N[C@@H](CC(C)C)C(=O)N[C@@H](CCCNC(=N)N)C(=O)N[C@@H](CCCCN)C(=O)N[C@@H](CCCCN)C(=O)N[C@@H](CC(C)C)C(=O)N[C@@H](CCC(N)=O)C(=O)N[C@@H](CC(=O)O)C(=O)N[C@H](C(=O)N[C@@H](Cc1cnc[nH]1)C(=O)N[C@@H](CC(N)=O)C(=O)N[C@@H](Cc1ccccc1)C(=O)N[C@H](C(=O)N[C@@H](C)C(=O)N[C@@H](CC(C)C)C(=O)NCC(=O)O)C(C)C)C(C)C)C(C)C the results were VDR inh -2%.
`CC(C)N(CC#CCC(O)(c1ccccc1)c1ccccc1)C(C)C` gave VDR inh -1%.
Screening Cn1ccs/c1=N\S(=O)(=O)c1ccc(C(C)(C)C)cc1 returned VDR inh 1%.
For CCN(CC)C(=O)c1c(-c2ccccc2)c(-c2ccccc2)nn(CC)c1=O the results were VDR inh 8%.
O=C(NC1CCCCC1)c1ccc(S(=O)(=O)N2CCCC2)cc1 was read as VDR inh -10%.
For CCNc1nc(NCC)n2c(SC(C(=O)Nc3cc(C)ccc3OC)c3ccccc3)nnc2n1 (configuration not stated) the results were VDR inh -9%.
`COc1ccc(C(=O)COC(=O)c2cccnc2Cl)c(OC)c1` gave VDR inh 7%.
Screening CC1(C)Cc2c(c(-c3ccco3)nc3sc4c(NCC5CCCO5)ncnc4c23)CO1 (configuration not stated) returned VDR inh 89µM*.
`CSCCC(NC(=O)c1ccccc1Br)C(=O)NCC(C)(C)N1CCOCC1` (configuration not stated) gave VDR inh -8%.
Screening Clc1ccc(CN2CC[C@H]3C=CCc4cccc(c43)C2)cc1 returned VDR inh -3%.
`CN(CC(=O)Nc1ccccc1F)S(=O)(=O)c1ccc2c(c1)c(=O)n(C)c(=O)n2C` gave VDR inh -4%.
`O=C(OCC(=O)N1CCN(c2ccccc2)CC1)c1ccc2ncsc2c1` gave VDR inh 17%.
CCC(C)NS(=O)(=O)c1ccc(NC(=O)c2ccc([N+](=O)[O-])cc2Cl)cc1 (configuration not stated) was read as VDR inh -1%.
For COc1ccc(S(=O)(=O)N(C)C[C@H]2Oc3c(NC(=O)c4ccncc4)cccc3C(=O)N([C@H](C)CO)C[C@@H]2C)cc1 the results were VDR inh -7%.
Screening COc1cccc(CN(C)C(=O)C(Cc2ccccc2)NC(=O)c2ccccc2)c1OC (configuration not stated) returned VDR inh -13%.
`Cc1ccc(C)c(-n2nnnc2Sc2nc([N+](=O)[O-])nn2C)c1` gave VDR inh -1%.
Screening CC(/C=N/NC(=O)c1ccccc1C)=C\c1ccccc1 returned VDR inh -14%.
Screening O=C(N[C@@H](Cc1ccccc1)c1nc2ccccc2[nH]1)c1cc([N+](=O)[O-])ccc1Cl returned VDR inh inconclusive.
COc1ccc(C(=O)NNC(=O)CCC(=O)Nc2cc(C)on2)cc1 was read as VDR inh -20%.
Screening COc1cc(/C=N/NC(=O)c2cc(-c3cccc(Br)c3)nc3ccccc23)cc(OC)c1O returned VDR inh 14%.
Screening CC(C)c1ccc(N2C(=O)CS(=O)(=O)C23C(=O)N(Cc2cccc(F)c2)c2ccccc23)cc1 (configuration not stated) returned VDR inh -6%.
Screening CC(=O)c1c(C)oc2ccc(N(C(C)=O)S(=O)(=O)c3ccc(Cl)c([N+](=O)[O-])c3)cc12 returned VDR inh 4%.
`Cc1[nH]nc(SCC(=O)NC(C)c2ccccc2)c1[N+](=O)[O-]` (configuration not stated) gave VDR inh -6%.
`OCc1ccccc1CNCc1ccccc1` gave VDR inh -1%.
`COc1ccc(C(C)=O)cc1COC(=O)Cc1n[nH]c(=O)c2ccccc12` gave VDR inh 0%.
`CC(C)=CC(=O)N1CC[C@@H](N2CCN(c3ccccc3F)CC2)[C@H](O)C1` gave VDR inh -9%.
COC(=O)c1ccc(COC(=O)CCNS(=O)(=O)c2ccc(C)c(C)c2)cc1 was read as VDR inh -2%.
`O=C1C=C(c2ccccc2)CC(c2ccc(F)cc2)C1` (configuration not stated) gave VDR inh 1%.
For COc1ccc(/C=C2/C(=O)N(c3c(F)c(F)c(F)c(F)c3F)N=C2C)cc1 the results were VDR inh 50µM*.
Screening O=S(=O)(Nc1ccc(-n2cnnn2)cc1)c1ccc(F)c(F)c1F returned VDR inh -16%.
CCCCN1CCNC[C@@H]1Cc1ccc(O)cc1 was read as VDR inh -7%.
`C=CC[C@@H](CC(=O)OC(C)(C)C)C(=O)OC[C@H]1CCCN1C(=O)[C@@H](CC=C)CC(=O)N[C@H](CO)Cc1ccccc1` gave VDR inh -9%.

Grouped by structure, the entries above containing a thiophene ring, fused or not.
`COc1ccc(C2=NN(C(=O)CCC(=O)O)C(c3cccs3)C2)cc1OC` (configuration not stated) gave VDR inh -9%.
Screening Cc1ccc(Oc2nc(CN3CCOCC3)nc3sc4c(c23)CCC(C)C4)cc1C (configuration not stated) returned VDR inh 6%.
`Cc1ccccc1NC(=O)c1sc2nc3n(c(=O)c2c1C)N=C(c1ccccc1)CS3` gave VDR inh -7%.
O=C(COC(=O)c1cccs1)NCC1CCCCC1 was read as VDR inh -15%.
Screening CC1(C)Cc2c(c(-c3ccco3)nc3sc4c(NCC5CCCO5)ncnc4c23)CO1 (configuration not stated) returned VDR inh 89µM*.
